Screens from PubChem BioAssay.
BJeLR lethal = MLPCN primary cell-based screen for lethality selective to Ras in HRASV12 cells | AID 1554, 2009 | inhibition, % (test concentration not listed) | BJeLR (HRASV12) viability, CellTiter-Glo ATP luminescence, 48 h; reference of the scale not given here | 300,000 tested, 0.17% active;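 active = replicate mean above 50%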;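 also: 50 nL library stock added to about 25 µL; numbers are from one replicate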
Sa RN4220 lethal = growth inhibition of S. aureus RN4220, primary screen, OD600; 16 h; inhibition, % (no concentration beside the values); 330,000 tested, 0.33% active;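 active = z-score of -3 or lower and OD600 up to 0.18 on both plates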;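 also: plate controls were untreated cells for no effect and reference antibiotic for full effect; stock transfer was 100 nL into about 80 µL; one replicate is shown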
Mtb hypoxia inh = PubChem AID 1159583. M. tuberculosis hypoxia-regulated fluorescent reporter, fluorescence. fluorescence inhibition, % (test concentration not listed). 300,000 tested, 0.1% active;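 active = 35 to 45% if threefold the growth effect, above 45% if 1.5-fold the growth effect; inactive = the rest, general growth blockers included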;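 also: wells of about 50 µL received 100 nL stock; 0% = vehicle wells and 100% = reference inhibitor wells; whole bacteria with a GFP reporter of the hypoxia response; strong numbers were not always called active; many hits fall short of the cut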
Bead autofluor = flagged as autofluorescent in microsphere protease counterscreen; compound autofluorescence counterscreen, microsphere flow cytometry; hits give high values; fluorescence intensity (test concentration not listed); 360,000 tested, 3.1% active; AID 624483;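 active = at least 3 SD above the mean of all compounds, about 16000 in these data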;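 also: 100 nL of 1 mM stock went into each well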
PrP 5UTR inh = inhibition of PrP 5' UTR reporter expression | AID 488862, 2010 | cell-based PrP 5' UTR mRNA reporter, plate reader | inhibition, % (concentration not given with the values) | 340,000 tested, 0.35% active;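 active = every replicate at 50% or more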;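 also: 0 = median of the neutral control wells; tested in H4 reporter cells; numbers are from one replicate; inactives centre near -14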
ugtP null kill = growth inhibition of ugtP-null S. aureus, primary screen, RN4220 ugtP deletion, OD600 | 16 h; some inactives read as strong as hits | growth inhibition, % (test concentration not listed) | 330,000 tested, 0.54% active | AID 1259309, 2017;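 active = z-score under -3 and OD600 up to 0.15 on both plates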;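 also: plate controls were untreated wells for no effect and antibiotic for full effect; wells of about 80 µL received 100 nL stock; the first replicate is given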
Mtb hypoxia inh growth = further read-out of Mtb hypoxia inh, marked with its call; growth inhibition, %; measured here: M. tuberculosis growth (absorbance);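 0% = vehicle and 100% = reference antibiotic; read after six days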
Active calls of the source: *; nt = not tested or not shown.

SMILES | BJeLR lethal | Sa RN4220 lethal | Mtb hypoxia inh | Mtb hypoxia inh growth | Bead autofluor | PrP 5UTR inh | ugtP null kill
CC[N+](CC)(CC#CCO)CC#Cc1ccccc1 | -7 | 6.3 | 3 | 0 | 5013 | -25 | 5
Cc1nn(-c2ccccc2)c(C)c1NC(=O)COc1ccc(Cl)cc1Cl | 8 | 11 | -11 | 15 | 2534 | -2 | -18
NC(=O)[C@H]1CC2(CC(c3cccc(NC(=O)COc4ccc(Cl)cc4)c3)=NO2)CN1C(=O)[C@H]1CCC(=O)N1 (stereo partly specified) | -4 | nt | nt | nt | 2901 | -20 | nt
O=C(COC(=O)c1cccc(S(=O)(=O)N2CCc3ccccc3C2)c1)NCc1ccco1 | 2 | 0.3 | 11 | 13 | 3122 | -7 | 9
CC(=O)Nc1sc(C)c(C)c1C(=O)OCCOc1ccccc1 | -10 | 9.7 | 23 | 13 | 5553 | -60 | -1
Cn1c(N)c(C(=O)COC(=O)C2CCC(C(C)(C)C)CC2)c(=O)n(C)c1=O (stereo unspecified) | -2 | 2.7 | nt | nt | 2639 | -28 | -6
CC(C)(C)n1ncc2c(=O)n(Cc3ccc(Cl)cc3Cl)cnc21 | -12 | 2.2 | 10 | 6 | 2480 | 2 | 1
CC(C)Cn1c(N2CCN(C(=O)/C=C/c3ccccc3)CC2)nc2ccccc21 | -8 | -2.5 | 6 | 5 | 4349 | -22 | 10
Cc1ccc(CNC(=O)c2cc(=O)c3ccc(C)cc3o2)cc1 | 1 | -1.3 | 2 | -9 | 3721 | -13 | 1
CSc1ccccc1NC(=O)CN(C)CC(=O)Nc1ccc(S(=O)(=O)N2CCCC2)cc1 | nt | 4.9 | 5 | 10 | 3451 | -4 | 4
CN1CCCC1CCNC(=O)c1c(-c2ccc3c(c2)OCO3)noc1-c1ccsc1 (stereo unspecified) | nt | 8.0 | 3 | 8 | nt | nt | 3
CCN1CCN(CCCNC(=O)C2c3ccccc3C(=O)N(C)C2c2ccc(OC)cc2)CC1 (stereo unspecified) | 2 | 2.2 | 2 | 2 | 8507 | -27 | 1
CCOC(=O)c1ccc2ncc(C(=O)OCC)c(NCc3ccco3)c2c1 | -2 | -10 | 3 | -6 | 3157 | -11 | -10
Cc1ccc(NC(=S)N2CCCCCC2)c(C)c1 | 1 | 2.7 | -3 | -5 | 6769 | -6 | 3
O=C(NCc1ccccc1)c1ccc(Cn2cc(C(F)(F)F)ccc2=O)cc1 | 1 | 3.1 | 4 | 7 | 9082 | -13 | 9
CC(NC(=S)NCCc1ccccc1)C(c1cccs1)N1CCN(C)CC1 (stereo unspecified) | -5 | -9.3 | 10 | 8 | 6041 | -36 | -4
C[C@H]1C[C@@H]2[C@H]([C@@H](O)C[C@@]3(C)[C@H]2CC[C@]3(O)C(=O)CO)[C@@]2(C)C=CC(=O)C=C12 | -19 | nt | nt | nt | 5937 | 9 | nt
COc1cc2c3c(c1OC)C1(C=CC(=O)C=C1)CC3N(C(=O)CCC(=O)O)CC2 (stereo unspecified) | 6 | 2.1 | 10 | -4 | 4490 | -18 | 12
Cn1c(=O)c2c(nc(N3CCc4ccccc4C3)n2Cc2ccccc2F)n(C)c1=O | -3 | 8.6 | 5 | 10 | 2575 | -29 | -9
O=C(COc1ccccc1)N1CCN=C1SCc1ccc(F)cc1 | -15 | -2.1 | -6 | 4 | 3747 | -3 | 0
COC(=O)C1=C(COc2ccccc2)NC(=O)NC1c1ccc(Br)cc1 (stereo unspecified) | -1 | 6.9 | 6 | 9 | 4508 | -30 | -5
COc1ccc(C=NNC(=O)c2ccn[nH]2)cc1COc1ccc(Cl)cc1Cl | nt | 3.7 | -1 | 5 | nt | nt | 12
Nc1ccc(N2CCCC2)c(S(=O)(=O)Nc2cccc(C(F)(F)F)c2)c1 | nt | 4.3 | 11 | 5 | 3853 | -21 | -2
COc1cc(NC(=O)CN2c3ccccc3CC2C)cc(OC)c1OC (stereo unspecified) | 3 | -0.7 | nt | nt | nt | -15 | -1
CC(C)CCn1c(=O)c(C(=O)N/N=C/c2cccc(F)c2)c(O)c2ccccc21 | -4 | nt | nt | nt | 2217 | -16 | nt
Cc1ccc(S(=O)(=O)Nc2cccc(-n3cnnn3)c2)cc1 | -5 | 4.7 | 6 | 2 | 5526 | -7 | 4
CCOC(=O)C(=CNCC(=O)O)C(=O)OCC | 2 | 4.8 | 3 | -2 | 6255 | -11 | 6
CCc1ccc(C(=O)NC(=S)Nc2ccc3c(c2)OCCO3)cc1 | -3 | 16 | 5 | 5 | 3436 | -155 | 37
Cc1cccc2nc(CSc3ccccc3C(=O)O)cn12 | -11 | 4.6 | 6 | 2 | 2168 | -3 | 10
COc1ccc(NC(=O)c2cccnc2)cc1OCC(C)C | -4 | nt | nt | nt | 3326 | -12 | nt
O=C(NCC(c1ccco1)N1CCCC1)c1cn(-c2ccccc2)nc1-c1ccc(F)cc1 (stereo unspecified) | nt | 1.6 | -3 | -2 | 6293 | -4 | 5
O=C(NC1CCCC1)c1ccc2nc(-c3ccco3)c(-c3ccco3)nc2c1 | nt | 16 | -85 | -16 | 2950 | -17 | -7
CN(C)CCCNc1oc(-c2ccccc2)nc1C#N | -5 | 5.9 | 6 | 9 | 2795 | -5 | 7
CCCS(=O)(=O)N1CCc2cc(OC)c(OC)cc2C1 | -7 | 3.2 | 15 | 12 | 3979 | -8 | 0
Cc1c(OC(C)C(=O)NCCN2CCOCC2)ccc2c3c(c(=O)oc12)CCCC3 (stereo unspecified) | -1 | 7.7 | 12 | 8 | 5633 | -11 | 11
Cc1cc2ncc(C(=O)Nc3ccsc3C(=O)O)c(C)n2n1 | 2 | 3.6 | 6 | 14 | 4835 | -24 | 0
CC(=NNC(=O)c1cc(O)c(O)c(O)c1)c1ccc([N+](=O)[O-])cc1 | nt | 10 | 5 | 19 | nt | nt | -10
CCOc1ccc(C(C(=O)NCC2CCCO2)N(C(=O)c2snc(C(N)=O)c2N)c2ccc3c(c2)OCCO3)cc1 (stereo unspecified) | 0 | -2.6 | 5 | 12 | 3715 | -24 | -6
COc1ccccc1C(=O)Nc1ccc(S(=O)(=O)Nc2cnc3ccccc3n2)cc1 | -3 | -1.1 | 12 | 26 | 3638 | -11 | 33
CC(C)(C)c1cc(C(=O)N2CCc3ccccc32)ccn1 | -1 | 2.5 | 21 | 13 | 8282 | 13 | 7

Compound profiles, as listed above:
Results for `Cc1cc2ncc(C(=O)Nc3ccsc3C(=O)O)c(C)n2n1` → BJeLR lethal = 2; Sa RN4220 lethal = 3.6; Mtb hypoxia inh = 6; Mtb hypoxia inh growth = 14; Bead autofluor = 4835; PrP 5UTR inh = -24; ugtP null kill = 0
Results for `CC(C)(C)c1cc(C(=O)N2CCc3ccccc32)ccn1` → BJeLR lethal = -1; Sa RN4220 lethal = 2.5; Mtb hypoxia inh = 21; Mtb hypoxia inh growth = 13; Bead autofluor = 8282; PrP 5UTR inh = 13; ugtP null kill = 7

Further records follow:
SMILES | BJeLR lethal | Sa RN4220 lethal | Mtb hypoxia inh | Mtb hypoxia inh growth | Bead autofluor | PrP 5UTR inh | ugtP null kill
O=C(NN=Cc1ccc(COc2ccc([N+](=O)[O-])cc2)o1)c1cccc(Cl)c1 | nt | -1.7 | 2 | -2 | nt | nt | 1
O=C(Cc1ccccc1)N/N=C/c1ccc(S(=O)(=O)O)o1 | -13 | nt | nt | nt | 4062 | -23 | nt
COc1c(C)cc(S(=O)(=O)NCc2ccccn2)c(C)c1C | 5 | 5.1 | 6 | 6 | 3052 | -53 | 0
COc1cccc(OCc2cc(C(=O)NCc3ccccn3)no2)c1 | 5 | 2.3 | 9 | 3 | 5620 | -77 | 6
Cc1ccc(O)c(-c2cc(-c3ccc(F)cc3)no2)c1 | 6 | 3.3 | 5 | 2 | 3927 | -100 | 8
COc1ccc(C=NNC(=O)c2ccccc2OC)cc1COc1ccccc1C | nt | 1.6 | -1 | 0 | nt | nt | 7
Cc1ccc(S(=O)(=O)NC(CC(C)C)C(=O)N2CCCC2)cc1 (stereo unspecified) | 3 | 2.6 | 0 | -3 | 6259 | -27 | 3
O=C(NCCc1ccccn1)c1cc(-c2cccc3ccccc23)nc2ccccc12 | 11 | 2.7 | -11 | -4 | 2549 | -28 | -4
CCCCC(=O)Nc1ccc(NC(=O)c2ccccc2[N+](=O)[O-])cc1OC | 1 | 4.9 | 5 | 2 | 2442 | -16 | -1
CCC1CCCCN1C(=O)c1sc2nc(C)nc(N(CC)CC)c2c1C (stereo unspecified) | -6 | -0.6 | 14 | 5 | 2526 | -14 | 3
O=C1c2ccccc2C(=O)N1CCCCCc1nc(-c2ccccc2)no1 | 14 | -2.8 | 4 | 7 | 2163 | -8 | 4
CCCc1cc2c(cc1N(C)S(=O)(=O)c1ccccc1)OCO2 | nt | 0.3 | 25 | 8 | 3965 | -14 | 12
C=C1N(CCCCCC(=O)O)C(=O)OC12CCCCC2 | -10 | 8.6 | 10 | 2 | 22385* | -14 | 4
COc1ccc(Cc2noc(CN(C)CC3(N4CCOCC4)CCCCC3)n2)cc1OC | 4 | 1.6 | 2 | -2 | nt | -12 | 3
Cc1ccc(S(=O)(=O)CCC(=O)OCC(=O)N2CCN(S(=O)(=O)c3ccccc3)CC2)cc1 | 1 | -0.5 | 3 | 4 | 5168 | -11 | 0
COc1ccc(C(=O)NCCc2cc3c(OC)ccc(OC)c3[nH]c2=O)cc1OC | 2 | 2.9 | -6 | 2 | 2593 | -1 | 9
Cc1cc(C)n2nc3ccccc3c2n1 | -2 | 3.3 | 9 | 8 | 9702 | -21 | 3
O=C(CSc1nnc(C2CC2)n1Cc1ccccc1)c1ccc(S(=O)(=O)N2CCOCC2)cc1 | 3 | -0.5 | 0 | -3 | 3913 | -19 | 0
COC(=O)C1NC(=O)N2C(C(=O)OC)C(C)(C)S[C@H]12 (stereo partly specified) | -12 | nt | nt | nt | 4090 | -8 | nt
CCCOc1ccc(-c2nnc(-c3ccco3)o2)cc1 | -1 | 1.2 | -5 | 3 | 21565* | 19 | -11

2 of the compounds above, tab-delimited:
mol	BJeLR lethal	Sa RN4220 lethal	Mtb hypoxia inh	Mtb hypoxia inh growth	Bead autofluor	PrP 5UTR inh	ugtP null kill
Nc1ccc(N2CCCC2)c(S(=O)(=O)Nc2cccc(C(F)(F)F)c2)c1	nt	4.3	11	5	3853	-21	-2
COc1cc(NC(=O)CN2c3ccccc3CC2C)cc(OC)c1OC (stereo unspecified)	3	-0.7	nt	nt	nt	-15	-1

Continuation.
SMILES | BJeLR lethal | Sa RN4220 lethal | Mtb hypoxia inh | Mtb hypoxia inh growth | Bead autofluor | PrP 5UTR inh | ugtP null kill
Cc1ccc(N=c2c([N+](=O)[O-])nn(-c3ccccc3)n2O)c(C)c1 | 4 | 0.3 | 13 | 4 | 17460* | -23 | -6
COc1ccc(C(=O)N/N=C2\SCC(=O)N2Cc2ccc3c(c2)OCO3)c(OC)c1 | -5 | nt | nt | nt | 2304 | -30 | nt
CN1CCN(c2nc(N3CCN(c4ccccc4)CC3)ncc2F)CC1 | 4 | 0.8 | 12 | 4 | 9150 | 5 | 4
CC(=O)CSc1nc(-c2cccs2)c(C#N)c(=O)[nH]1 | -4 | 3.5 | 1 | 0 | 2038 | -10 | -8
CCOC(=O)c1c(NC(=O)c2ccc(N3C(=O)[C@@H]4[C@H](C3=O)[C@H]3C=C[C@@H]4C3)cc2)sc2c1CCCC2 | 3 | 3.4 | 4 | 9 | 2476 | -25 | 0
CCN1C/C(=C/c2ccc(OC)c(O)c2)C(=O)/C(=C/c2ccc(OC)c(O)c2)C1 | 55* | 6.5 | 6 | 1 | 3242 | -24 | 9
O=C(NC1CCS(=O)(=O)C1)/C(=C/c1ccco1)NC(=O)c1ccccc1 (stereo unspecified) | 5 | nt | nt | nt | 4521 | 1 | nt
O=C(C1CCCN1S(=O)(=O)c1cccc2nsnc12)N1CCN(c2ccccc2)CC1 (stereo unspecified) | 2 | 4.3 | 6 | 5 | 5349 | -1 | 2
O=C(NC1CCCC1)c1cc(-c2ccccc2)nc2ccccc12 | -22 | 3.1 | 7 | 5 | 3845 | -25 | 7
CSc1ccccc1NC(=O)c1cc(C2CC2)on1 | 2 | 3.8 | 2 | 9 | 6485 | -30 | -2
O=C(Nc1ccc2c(c1)OC1(CCCC1)O2)C1CC1 | -4 | 3.9 | 10 | 12 | 6201 | -38 | 4
CCCn1c(SCC(=O)N2c3ccc(F)cc3CCC2C)nnc1-c1ccccn1 (stereo unspecified) | -7 | -1.2 | 13 | 9 | 9191 | -25 | -6
Cc1ccc2c(c1)sc(C)[n+]2CCCS(=O)(=O)[O-] | 8 | 0.2 | -9 | -5 | 3293 | -8 | 2
